High-throughput results: PubChem BioAssay, Broad Institute
DUX4 txn inh: DUX4-mediated transcription inhibition | 293T-iDUX4 ZSCAN4-Gaussia luciferase reporter, 24 h; hits give low values | activity change, negative = inhibition, % (test concentration not listed) | 37,000 compounds, 0.8% hits;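 active = -10% or lower and over 25 points stronger than a control reporter; inconclusive = -10% or lower with a smaller gap; inactive = above -10%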;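 note: 0% = median of neutral control wells and -100% = median of positive control wells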
DUX4 txn inh difference: second read-out of DUX4 txn inh, no call of its own (marks repeat the call); Gaussia minus Italica difference, %; measured here: selective DUX4 reporter inhibition;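 worked out from the two reporters; negative = selective loss of the DUX4 reporter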
DUX4 txn inh control: further read-out of DUX4 txn inh, marked with its call; activity change, negative = inhibition, %; measured here: Italica tet-on control reporter;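 0 = neutral control and -100 = positive control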
* = called active by the depositor; u = inconclusive; x = no result given; & = joins results of further samples.

SMILES | DUX4 txn inh | DUX4 txn inh difference | DUX4 txn inh control
O=C(NC1CCCC1)N1CCCCN2[C@H](CO)[C@@H](c3ccc(-c4cncnc4)cc3)[C@H]2C1 | 21 | 13 | 7.9
O=C(NCC[C@@H]1CC[C@H](NC(=O)C2CC2)[C@H](CO)O1)Nc1ccc(C(F)(F)F)cc1 | 3&2 | 4&4 | -1.5&-1.7
COCC#Cc1ccc2c(c1)O[C@H](CN(C)Cc1ccc3c(c1)OCO3)[C@@H](C)CN([C@H](C)CO)S2(=O)=O | -1 | -1 | -0.4
O=C(NCCN1CCCCC1)[C@H]1[C@H](CO)[C@H]2Cn3c(cccc3=O)[C@@H]1N2C(=O)C1CCCCC1 | 3 | 1 | 1.7
O=C(C[C@H]1C[C@@H]2c3cc(NC(=O)CC4CC4)ccc3O[C@@H]2[C@H](CO)O1)NCc1ccccn1 | 4 | 4 | 0.4
CCC(=O)N1[C@H](C(=O)NCCCN(C)C)[C@@H](CO)[C@@H]2Cn3c(ccc(-c4ccccc4OC)c3=O)[C@@H]21 | 6 | 5 | 1.6
O=C(Nc1cccc(F)c1)N1C[C@@H]2[C@H](c3ccccc31)[C@@H](CO)N2C(=O)Cc1ccccc1 | -5 | -6 | 1.1
CN(C)CC#Cc1ccc([C@@H]2[C@H](C#N)N[C@@H]2CO)cc1 | 1 | 3 | -1.7
O=C(c1cnccn1)N1CC[C@@H]2[C@H]1c1cc(C#Cc3cccnc3)ccc1N[C@@H]2CO | -1 | -10 | 9.5
CCNC(=O)C[C@H]1CC[C@@H](NC(=O)C2CC2)[C@@H](CO)O1 | 0 | 3 | -3.1
O=C(C[C@H]1CC[C@@H]2[C@H](COC[C@H](O)CN2Cc2ccccc2F)O1)N[C@@H]1CCN(Cc2ccccc2)C1 | u | x | x
CN(C)C(=O)c1ccc(-c2ccc([C@@H]3[C@@H](C#N)N(C(=O)C4CCCC4)[C@H]3CO)cc2)cc1 | -2 | -4 | 1.3
C[C@H](CO)N1C[C@H](C)[C@H](CN(C)C(=O)CCN(C)C)OCc2ccccc2-c2c(n(C)c3ccccc23)C1=O | 0 | -6 | 6.3
O=C(C[C@@H]1C[C@H]2c3cc(NC(=O)c4cccnc4)ccc3O[C@H]2[C@H](CO)O1)NCCc1ccccc1 | 0 | -3 | 2.2
CN(C)C(=O)c1ccc(-c2ccc3c(c2)[C@H]2[C@H](CCN2Cc2cncnc2)[C@H](CO)N3)cc1 | 5 | -3 | 8.8
CCNC(=O)C[C@H]1CC[C@H]2[C@@H](COc3ccc(NC(=O)c4ccc(C#N)cc4)cc3C(=O)N2C)O1 | -1 | -7 | 6.6
Cc1noc(C)c1S(=O)(=O)Nc1ccc2c(c1)C(=O)N([C@H](C)CO)C[C@H](C)[C@H](CN(C)C(=O)CCC(F)(F)F)OCCCC[C@@H](C)O2 | -3 | -5 | 1.6
CCS(=O)(=O)NCC[C@@H]1CC[C@@H](NC(=O)C2CCOCC2)[C@@H](CO)O1 | -2 | 0 | -2.5
O=C(O)C[C@H]1C[C@@H]2c3cc(NC(=O)NC4CCCC4)ccc3O[C@@H]2[C@H](CO)O1 | 5 | 1 | 3.3
COc1ccccc1-c1ccc([C@H]2[C@H]3CN(Cc4ccncc4)CCCCN3[C@H]2CO)cc1 | u | x | x

Arranged by heavy-atom count (falling): 10 of the compounds above
SMILES | DUX4 txn inh | DUX4 txn inh difference | DUX4 txn inh control
Cc1noc(C)c1S(=O)(=O)Nc1ccc2c(c1)C(=O)N([C@H](C)CO)C[C@H](C)[C@H](CN(C)C(=O)CCC(F)(F)F)OCCCC[C@@H](C)O2 | -3 | -5 | 1.6
C[C@H](CO)N1C[C@H](C)[C@H](CN(C)C(=O)CCN(C)C)OCc2ccccc2-c2c(n(C)c3ccccc23)C1=O | 0 | -6 | 6.3
O=C(C[C@H]1CC[C@@H]2[C@H](COC[C@H](O)CN2Cc2ccccc2F)O1)N[C@@H]1CCN(Cc2ccccc2)C1 | u | x | x
O=C(C[C@@H]1C[C@H]2c3cc(NC(=O)c4cccnc4)ccc3O[C@H]2[C@H](CO)O1)NCCc1ccccc1 | 0 | -3 | 2.2
CN(C)C(=O)c1ccc(-c2ccc3c(c2)[C@H]2[C@H](CCN2Cc2cncnc2)[C@H](CO)N3)cc1 | 5 | -3 | 8.8
CN(C)C(=O)c1ccc(-c2ccc([C@@H]3[C@@H](C#N)N(C(=O)C4CCCC4)[C@H]3CO)cc2)cc1 | -2 | -4 | 1.3
O=C(c1cnccn1)N1CC[C@@H]2[C@H]1c1cc(C#Cc3cccnc3)ccc1N[C@@H]2CO | -1 | -10 | 9.5
O=C(O)C[C@H]1C[C@@H]2c3cc(NC(=O)NC4CCCC4)ccc3O[C@@H]2[C@H](CO)O1 | 5 | 1 | 3.3
CCS(=O)(=O)NCC[C@@H]1CC[C@@H](NC(=O)C2CCOCC2)[C@@H](CO)O1 | -2 | 0 | -2.5
CN(C)CC#Cc1ccc([C@@H]2[C@H](C#N)N[C@@H]2CO)cc1 | 1 | 3 | -1.7

More records
SMILES | DUX4 txn inh | DUX4 txn inh difference | DUX4 txn inh control
O=C(NC1CCCC1)[C@@H]1[C@@H](CO)[C@@H]2Cn3c(ccc(-c4ccccc4)c3=O)[C@H]1N2 | 9 | 8 | 1.2
CCCN(C)C[C@H]1OCCCC[C@H](C)Oc2ccc(NC(=O)CCCN(C)C)cc2C(=O)N([C@H](C)CO)C[C@@H]1C | 2 | 2 | 0.2
COCC(=O)N1[C@H](C#N)[C@H](c2ccc(C3=CCCC3)cc2)[C@@H]1CO | 5 | 0 | 4.7
O=S(=O)(c1ccccc1F)N1CC[C@H]2[C@H](CO)Nc3ccc(-c4ccc(F)cc4)cc3[C@H]21 | u | x | x
COc1ccccc1S(=O)(=O)N1CC[C@@H]2[C@@H](CO)N(C)c3ccc(-c4ccc(C#N)cc4)cc3[C@@H]21 | u | x | x
CO[C@@H]1CN(C)C(=O)c2cc(NC(=O)Nc3cc(F)ccc3F)ccc2OC[C@H](C)NC[C@H]1C | 4 | 0 | 3.6
COc1cccc(NC(=O)N[C@H]2CC[C@H](CC(=O)NCc3ccccn3)O[C@H]2CO)c1 | -1 | 2 | -3.3
CN1c2ccc(C#Cc3cccnc3)cc2[C@@H]2[C@@H](CCN2C(=O)CN2CCOCC2)[C@H]1CO | 1 | -8 | 8.7
CC(C)NC(=O)Nc1ccc2c(c1)C(=O)N(C)[C@H]1CC[C@H](CC(=O)NCC3CCCCC3)O[C@@H]1CO2 | -3 | -4 | 0.7
C[C@H](CO)N1C[C@H](C)[C@H](CN(C)C(=O)c2ccc(N3CCN(C)CC3)cc2)OCc2cn(nn2)CCCC1=O | 3 | -1 | 3.6
C[C@H](NC(=O)C[C@H]1C[C@@H]2c3cc(NC(=O)c4cccnc4)ccc3O[C@@H]2[C@@H](CO)O1)c1ccccc1 | 8 | 12 | -3.9
COc1ccc(S(=O)(=O)N(C)C[C@H]2OCc3cn(nn3)CCCC(=O)N([C@H](C)CO)C[C@H]2C)cc1 | 4 | 1 | 3.7
C[C@H]1CN([C@@H](C)CO)C(=O)c2cc(-c3cccc(C(=O)N(C)C)c3)cnc2O[C@@H]1CN(C)C(=O)Cc1ccccn1 | 3 | 2 | 1.0
O=C(N[C@@H]1CC[C@@H](CCn2cc(C3CC3)nn2)O[C@@H]1CO)c1cccnc1 | 1 | 4 | -3.3
CCC(=O)N(C)C[C@H]1[C@@H](c2ccc(-c3ccccc3F)cc2)[C@@H](CO)N1C(C)=O | 6 | 3 | 3.4
CC(C)NC(=O)N(C)C[C@H]1Oc2cc(C#Cc3ccccn3)ccc2S(=O)(=O)N([C@H](C)CO)C[C@@H]1C | 1 | 1 | 0.8
C[C@H]1CN([C@@H](C)CO)C(=O)c2cc(NC(=O)C3CCCCC3)ccc2O[C@H]1CN(C)Cc1ccc2c(c1)OCO2 | -2 | -2 | 0.0
C[C@H](CO)N1C[C@H](C)[C@@H](CN(C)Cc2ccc(F)cc2)OCc2ccccc2-c2ccccc2C1=O | 16 | 20 | -4.0
C/C=C/c1ccc([C@H]2[C@H](CO)N(c3nc(CC)cs3)[C@H]2CNC(C)C)cc1 | 3 | -1 | 4.0
CCCNC(=O)N1CC2(CCN(S(=O)(=O)CC)CC2)c2c([nH]c3cc(OC)ccc23)[C@@H]1CO | 10 | 7 | 2.8
CCCC(=O)Nc1ccc2c(c1)OC[C@H](C)N(C(=O)c1cccnc1)C[C@@H](C)[C@@H](OC)CN(C)C2=O | -6 | -8 | 1.8
COc1ccc(S(=O)(=O)N(C)C[C@@H]2Oc3ccc(NS(=O)(=O)c4c(C)noc4C)cc3C(=O)N([C@@H](C)CO)C[C@H]2C)cc1 | 0 | -5 | 4.9
CN(C)CC(=O)N1[C@H](CO)[C@H](c2ccc(-c3ccccc3F)cc2)[C@@H]1C#N | 5 | -3 | 8.4
O=C(C[C@H]1C[C@H]2c3cc(NC(=O)CC4CC4)ccc3O[C@H]2[C@H](CO)O1)NCc1ccncc1 | 1 | 6 | -5.3
C[C@@H]1CN([C@@H](C)CO)C(=O)c2cc(NS(=O)(=O)c3cn(C)cn3)ccc2O[C@@H](C)CCCCO[C@@H]1CN(C)C(=O)Nc1cccc2ccccc12 | 4 | -2 | 5.2
COCC#Cc1ccc([C@H]2[C@@H](CO)N3CCCCN(C(=O)CN(C)C)C[C@H]23)cc1 | 23 | 3 | 20
C[C@H](CO)N1C[C@H](C)[C@@H](CN(C)S(=O)(=O)c2ccc(Oc3ccccc3)nc2)OCc2cnnn2CCCC1=O | 1 | 1 | -0.7
CN1C(=O)c2cc(NC(=O)c3ccc(F)cc3)ccc2OC[C@@H]2O[C@H](CC(=O)N3CCOCC3)CC[C@H]21 | -2 | -4 | 2.3
C[C@H]1CN([C@@H](C)CO)S(=O)(=O)c2ccc(Br)cc2O[C@@H]1CN(C)S(=O)(=O)c1ccccc1F | 2 | 1 | 0.9
O=C(C[C@H]1C[C@@H]2c3cc(NC(=O)C4CCC4)ccc3O[C@@H]2[C@H](CO)O1)NC1CCCC1 | 8 | 6 | 2.4
C/C=C/c1ccc([C@H]2[C@@H](C#N)N(c3ncc(CC)s3)[C@H]2CO)cc1 | 5 | 5 | -0.3
O=C([C@H]1[C@H](CO)[C@H]2Cn3c(ccc(-c4ccc(F)cc4)c3=O)[C@H]2N1Cc1cocn1)N1CCCCC1 | -2 | 6 | -7.4
COCC(=O)Nc1ccc2c(c1)[C@H]1C[C@H](CC(=O)N(C)C)O[C@H](CO)[C@H]1O2 | 5 | 1 | 4.2
Cc1ccc(OC(=O)N(C)C[C@@H]2OCc3ccccc3-c3ccccc3C(=O)N([C@@H](C)CO)C[C@@H]2C)cc1 | 5 | 11 | -5.1
O=C(C[C@H]1C[C@H]2c3cc(NC(=O)CC4CC4)ccc3O[C@H]2[C@H](CO)O1)NCc1cc(F)ccc1F | -2 | -2 | -0.6
O=C(N[C@@H]1CC[C@H](CC(=O)N2CCOCC2)O[C@H]1CO)c1cccc(F)c1 | 9 | 15 | -5.7
CN(C)Cc1cn(CC[C@H]2CC[C@H](N)[C@@H](CO)O2)nn1 | 1 | 1 | 0.1
COc1ccc(C#Cc2ccc3c(c2)O[C@@H](CN(C)S(=O)(=O)c2ccccc2F)[C@@H](C)CN([C@@H](C)CO)S3(=O)=O)cc1 | -2 | -5 | 2.8
CCC(=O)N1CC2(C1)CN(C(C)=O)[C@@H](CO)c1[nH]c3cc(OC)ccc3c12 | 5 | -12 | 17
COc1ccc(-c2cnc3c(c2)C(=O)N([C@H](C)CO)C[C@H](C)[C@@H](CN(C)Cc2ccc(C(=O)O)cc2)O3)cc1 | 6 | 5 | 0.5
O=C(C[C@H]1C[C@@H]2c3cc(NC(=O)NC4CCCCC4)ccc3O[C@@H]2[C@@H](CO)O1)NCCc1ccccc1 | -8 | -8 | -0.7
CN(C)C(=O)c1cccc(-c2ccc([C@H]3[C@@H](C#N)N(C(=O)C4CCC4)[C@@H]3CO)cc2)c1 | -4 | -1 | -2.2
CC(=O)NC[C@@H]1[C@H](c2ccc(-c3ccccc3)cc2)[C@H](CO)N1C(=O)C1CC1 | 3 | -3 | 5.8
C[C@H]1CN([C@@H](C)CO)C(=O)c2cccc(N(C)C)c2O[C@H]1CN(C)S(=O)(=O)c1cn(C)cn1 | -3 | -3 | 0.3
COc1cccc(NC(=O)N(C)C[C@@H]2OCc3cn(nn3)CCCC(=O)N([C@H](C)CO)C[C@H]2C)c1 | 4 | -2 | 5.8
C[C@@H]1CCCCO[C@@H](CN(C)C(=O)Nc2cccc3ccccc23)[C@@H](C)CN([C@@H](C)CO)C(=O)c2cc(N(C)C)ccc2O1 | 2 | 5 | -2.8
COC(=O)C[C@@H]1CC[C@@H]2[C@@H](COc3ccc(NC(=O)c4cnccn4)cc3C(=O)N2C)O1 | -4 | -4 | -0.1
O=C1[C@@H](Cc2ccccc2)CCn2cc(nn2)COCC2CCCN12 (stereo not given in full) | 0 | 2 | -1.7
O=C(C[C@H]1CC[C@@H]2[C@H](COC[C@@H](O)CN2C(=O)C2CCCC2)O1)NCc1ccncc1 | 15 | 5 | 9.4
Cc1noc(C)c1S(=O)(=O)Nc1ccc2c(c1)C(=O)N([C@@H](C)CO)C[C@@H](C)[C@@H](CN(C)C(=O)c1ccncc1)OCCCC[C@@H](C)O2 | 0 | -3 | 2.6
Next part.
SMILES | DUX4 txn inh | DUX4 txn inh difference | DUX4 txn inh control
CS(=O)(=O)N1CCCCN2[C@H](CO)[C@@H](c3ccc(-c4cccc(C#N)c4)cc3)[C@H]2C1 | 3 | 6 | -3.4
COCCNC(=O)C[C@H]1C[C@@H]2c3cc(NC(=O)c4cccnc4)ccc3O[C@@H]2[C@@H](CO)O1 | 2 | 1 | 0.9
CC(C)C#Cc1ccc([C@H]2[C@H](C#N)N(C(=O)C3CC3)[C@H]2CO)cc1 | -3 | 3 | -5.5
CNC(=O)C[C@H]1CC[C@@H]2[C@@H](COc3ccc(NC(=O)NC(C)C)cc3C(=O)N2C)O1 | 6 | 3 | 2.2
COCC(=O)N1C[C@H]2[C@@H](c3ccccc31)[C@@H](CO)N2Cc1ccc(OC)cc1 | -1 | -1 | -0.2

An excerpt, so the mix of outcomes need not match the whole.
